Assay outcomes deposited in PubChem BioAssay by National Center for Advancing Translational Sciences (NCATS).
CtBP-E1A blk = CtBP/E1A binding inhibition; hit rate 0.49% among 340,000; activity change, % (concentration not given with the values); AlphaScreen GST-E1A/His-CtBP binding, 1536-well; hits give low values; control for the full effect not named in the record; in the data active means activity change below about -65%; inconclusive means about -30% to -65%; inactive means above about -30%; also: % is scaled to controls: 0 for no effect and ±100 for the full control effect
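AlphaScreen with 125 nM GST-E1A and 125 nM His-CtBP (5X stocks) in Tris pH 8.0, 300 mM NaCl, BSA, Tween 20, TCEP. Compounds preincubated 2 h at 37 deg C, then glutathione donor/nickel acceptor beads added for 1 h at 37 deg C in dark.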
PINK1 modulator = modulators of PINK1 expression. Potency, µM (series often up to 76.6 µM), for inactives: top-dose activation (PINK1 increase), hits mostly activators. hit rate 0.2% among 410,000. AID 624263. PINK1 immunofluorescence, high-content cytometry, 24 h; active = well fitted activation curve with a large enough effect; inconclusive = small, poorly fitted or top-dose-only effect; inactive = flat fitted curve, though single readings scatter; cell line not stated here;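 also: potency is read from the fitted curve at half-maximal effect; % of control where 0% means no effect; nearly all actives have a fitted effect of over 65% in size; a mitochondrial uncoupler was the plate control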
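A stable cell line was treated with compounds at 5 concentrations for 24 hours, with CCCP as control. PINK1 levels and mitochondrial localization were measured by immunofluorescence with mitochondrial, cell and nuclear markers after fixation, read by laser-scanning cytometry.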
TRPML1 ag = human mucolipin-1 channel agonism | AID 624414 | Q9GZU1 | activation, % (no concentration beside the values) | TRPML1-expressing cells, Ca2+ dye fluorescence, FDSS; host cell line not named in the record; reference of the full effect not given here | hit rate 0.12% among 410,000; in the data active = activation above about 50%; inconclusive = about 30% to 50%; inactive = below about 30%; also: 0% is about no effect; the text of the record puts the active cut at 80%
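TRPML1-DL cells, Tet-induced overnight (~16 h, 37 degrees C), loaded 45-90 min at room temperature with Ca8 no-wash calcium dye plus quencher. FDSS fluorescence: 10 s baseline, compound pin-transfer, 110 s agonist read, then EC80 54-4 (4uM final) and 110 s antagonist read.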
Six1-Eya2 blk = blocks human Six1 binding to Eya2 | activity change, % (test concentration not listed) | hit rate 0.56% among 360,000 | AlphaScreen GST-Six1/His-Eya2 binding, biochemical; hits give low values; control for the full effect not named in the record; in the data active = activity change below about -65%; inconclusive = about -30% to -65%; inactive = above about -30%; also: % is scaled to controls: 0 for no effect and ±100 for the full control effect; compound concentration not given in the record
Target sequence (O00167 whole entry, looked up): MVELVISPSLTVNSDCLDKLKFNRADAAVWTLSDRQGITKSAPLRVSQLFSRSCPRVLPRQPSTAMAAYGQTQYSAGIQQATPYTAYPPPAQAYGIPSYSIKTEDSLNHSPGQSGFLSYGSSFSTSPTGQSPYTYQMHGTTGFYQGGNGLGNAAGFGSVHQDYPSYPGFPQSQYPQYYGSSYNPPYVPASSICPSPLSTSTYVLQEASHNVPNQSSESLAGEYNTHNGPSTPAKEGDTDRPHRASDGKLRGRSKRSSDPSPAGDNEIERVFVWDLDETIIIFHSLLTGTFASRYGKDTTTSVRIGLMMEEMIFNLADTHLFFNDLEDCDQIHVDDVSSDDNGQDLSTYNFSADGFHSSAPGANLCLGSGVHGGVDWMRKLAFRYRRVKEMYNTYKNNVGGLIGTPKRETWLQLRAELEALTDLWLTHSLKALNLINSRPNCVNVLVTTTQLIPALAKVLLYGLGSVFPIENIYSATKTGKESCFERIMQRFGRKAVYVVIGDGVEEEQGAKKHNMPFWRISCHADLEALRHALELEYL
Target sequence (Q15475 whole entry, looked up): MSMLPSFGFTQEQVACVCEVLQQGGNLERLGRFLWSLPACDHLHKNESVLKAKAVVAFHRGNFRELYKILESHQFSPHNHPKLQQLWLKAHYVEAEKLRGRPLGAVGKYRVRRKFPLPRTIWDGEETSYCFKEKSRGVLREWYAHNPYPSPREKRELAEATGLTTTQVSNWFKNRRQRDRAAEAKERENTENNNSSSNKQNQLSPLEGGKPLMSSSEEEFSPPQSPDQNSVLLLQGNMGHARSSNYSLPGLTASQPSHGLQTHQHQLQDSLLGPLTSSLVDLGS
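Six1/Eya2 binding was read as AlphaScreen signal after compounds were pinned into GST-Six1 plus His-tagged Eya2 (5X stock 250/500 nM) in pH 8.0 Tris/NaCl/TCEP buffer, beads added, then incubated 1 h, 37 C, dark.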
D2 PAM = human D2 receptor positive allosteric modulation | hit rate 0.23% among 360,000 | potentiation, % (test concentration not listed) | AID 624464 | P14416 | DiscoveRx D2 beta-arrestin cells, luminescence, 90 min; 100% = 57 uM dopamine signal; active = potentiation of 50% or more; inconclusive = 30% to 50%; inactive = 30% or less;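 also: compound concentration not given in the record; tested on top of an EC20 dose of dopamine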
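PathHunter D2 cells, attached overnight at 37 deg C, received compound in DMSO plus dopamine at EC20 (50 nM final) for 90 min at 37 deg C. Beta-arrestin recruitment was read as luminescence after 1 h with detection reagent at ambient temperature.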
D2 agonist = human D2 receptor agonism in beta-arrestin assay | P14416 | DiscoveRx PathHunter D2 beta-arrestin, luminescence, 90 min; 100% = 57 uM dopamine signal | activation, % (no concentration beside the values) | hit rate 0.084% among 360,000 | AID 624465; in the data active = activation above about 40%; inconclusive = about 15% to 40%; inactive = below about 15%; also: compound concentration not given in the record; the text of the record calls up to 30% inactive
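Agonist mode: compounds alone added to overnight-plated D2 PathHunter cells for 90 min at 37 C, with 57 uM final dopamine (EC100) defining full response. Beta-arrestin recruitment detected by chemiluminescent reagent, read after 1 h at ambient temperature.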
* marks the source's active call; other numbers are inactive results; u = inconclusive; x = not tested or not shown; & = joins results of further samples; [ ] = another dose, or the depositor's remark.

SMILES	CtBP-E1A blk	PINK1 modulator	TRPML1 ag	Six1-Eya2 blk	D2 PAM	D2 agonist
COC(=O)C(C(=O)NCC1CCCO1)C1CCCCCC1 (stereo not drawn)	10	-0.5%	-0.9	2	-2	-2.7
O=C(NCc1cccnc1)/C(=C/c1ccc(-c2cccc(C(F)(F)F)c2)o1)NC(=O)c1ccccc1	4	-0.3%	1.1	1	-28	-1.4
CC(=O)Nc1ccc(NC2=C(Cl)C(=O)c3ccccc3C2=O)cc1	-6	-4.6%	1.3	2	20	u
Cc1cc(S(=O)(=O)N(Cc2ccccc2F)C2CC2)ccc1-n1cnnn1	-18	4.1%	0.9	-9	1	2.6
COc1ccccc1NC(=O)C1=C(C)NC(=O)NC1c1ccccc1[N+](=O)[O-] (stereo not drawn)	2	0.6%	1.3	5	2	-3.1
O=S(=O)(Cc1ccccc1)NCC1CCCN(Cc2ccc(F)c(F)c2)C1 (stereo not drawn)	8	-1.5%	0.1	-5	-11	-0.1
CC(=O)c1cc2c(ccc3ccccc32)oc1=O	-3	0.0%	-0.8	0	-20	2.0
Cn1c(=O)[nH]c(=O)c2c1nc(Br)n2CCCCSc1nc2ccccc2o1	-6	1.0%[38.3 µM]	-0.5	-1	-6	0.3
COc1ccc(OC)c(NS(=O)(=O)c2ccc(SC)cc2)c1	2	6.1%	2.1	-3	-4	-1.9
Cc1nc2c(C)cccc2cc1C(=O)N/N=C/c1ccc(N(C)C)cc1	-23	u	0.3	-21	-12	-0.3
COc1cccc(=O)c2c(C)n(CC(=O)c3ccccc3)c(C)c12	-20	-1.9%	0.8	-11	-17	-2.7
NC(=O)/C(=C/c1ccco1)NC(=O)/C=C/c1ccccc1	5	-2.0%	0.5	4	-13	-0.8

Ordered by SMILES length (low to high): three of the compounds above
SMILES	CtBP-E1A blk	PINK1 modulator	TRPML1 ag	Six1-Eya2 blk	D2 PAM	D2 agonist
NC(=O)/C(=C/c1ccco1)NC(=O)/C=C/c1ccccc1	5	-2.0%	0.5	4	-13	-0.8
CC(=O)Nc1ccc(NC2=C(Cl)C(=O)c3ccccc3C2=O)cc1	-6	-4.6%	1.3	2	20	u
Cc1cc(S(=O)(=O)N(Cc2ccccc2F)C2CC2)ccc1-n1cnnn1	-18	4.1%	0.9	-9	1	2.6

Next entries follow:
SMILES	CtBP-E1A blk	PINK1 modulator	TRPML1 ag	Six1-Eya2 blk	D2 PAM	D2 agonist
COc1cccc(Nc2ncnc3c2cnn3C)c1	4	-5.4%[38.3 µM]	-0.4	2	-8	3.5
COc1ccccc1/C=C/C1(C(=O)NC2CCCC2)CC(=O)N1c1ccc(C)cc1 (stereo not drawn)	-1	-1.9%	1.6	-5	-17	-5.6
Nc1[nH]c(C(=O)c2ccccc2)c(-c2ccccc2C(F)(F)F)c1C(=O)NCCc1cccs1	-1	-0.9%	-0.2	-1	x	x
O=C(O)/C=C/C(=O)Nc1ccccc1SC(F)(F)F	-11	-1.3%	-0.7	3	-26	-4.9
N#CCCN(Cc1ccccc1)C(=O)Nc1ccccc1	-1	-1.6%	2.2	5	-5	-0.2
CC(=O)CC1(O)C(=O)N(Cc2ccccc2)c2ccccc21 (stereo not drawn)	2	0.9%	-0.4	2	7	-0.3
COc1nc(NC2OC(CO)C(O)C(O)C2O)c(N)c(=O)[nH]1 (stereo not drawn)	2	3.3%	-0.3	-18	-4	-2.0
O=C(CSc1nnc(-c2ccncc2)n1CC1CCCO1)NCc1ccccc1 (stereo not drawn)	1	0.9%	0.4	11	-3	0.7
COc1cccc(CN=CC2=C(O)CC(C)(C)CC2=O)c1OC	4	u	1.7	2	2	3.4
Cc1ccc(NC(=S)NCC2CCCO2)c(OC(F)F)c1 (stereo not drawn)	-10	-0.6%	0.3	7	-1	-0.9
COc1ccc(-c2c(C#Cc3ccsc3)c3cc(-c4ccc(C(N)=O)cc4)ccc3n2C)cc1	0	1.0%	-0.6	-4	-3	-4.2
Cc1cc(OCC(=O)N2CCc3ccccc3C2)c2c(-c3ccccc3)cc(=O)oc2c1	21	-1.3%	-0.5	-4	-16	-5.5
c1ccc(CCn2nnnc2CN2CCc3ccccc32)cc1	-3	0.1%	0.4	-8	-10	-1.4
CC(C)(C)OC(=O)N1CCC(CNC(=O)c2ccccc2)CC1	3	0.0%	0.7	12	-11	-2.2
Cc1ccc(Cl)cc1NC(=O)Cn1cc2c(n1)CCCC2	8	0.3%	2.6	4	-8	-1.7
O=S1(=O)CCN(Cc2ccccc2C(F)(F)F)CC1	9	0.4%	-0.2	4	-2	-0.8
C[C@H](NC(=O)C1(c2ccccc2)CCN(C(=O)OC(C)(C)C)CC1)C(=O)N[C@@H](C(=O)O)c1ccccc1	10	1.4%	x	1	-1	4.1
CCOC(=O)c1n[nH]c2ccccc12	1	0.7%	-1.4	-5	3	-4.4
Cc1cc(C(=O)Nc2ccccn2)no1	0	-2.1%[38.3 µM]	0.2	5	2	-1.6
O=C(Nc1ccc(S(=O)(=O)Nc2nccs2)cc1)c1cc(-c2ccccc2)nc2ccccc12	-12	-2.2%	-0.5	-22	-2	-2.5
Cn1c(=O)n(C)c2cc(S(=O)(=O)NCCc3ccccc3)ccc21	-1	1.5%	-0.3	-2	10	3.7
CCCCn1c(N)c(N(CC(C)C)C(=O)c2oc3ccc(OC)cc3c2C)c(=O)[nH]c1=O	4	3.0%	0.1	-2	-9	-1.8
O=C(CNC(=S)N(CCCN1CCOCC1)Cc1cccs1)N1CCCCCC1	-10	-1.1%	-0.4	-2	-3	-1.3
COCCN1C(=O)C(=O)/C(=C(/O)c2ccc(S(=O)(=O)N3CCCCC3)cc2)C1c1ccc(O)c(OC)c1 (stereo not drawn)	-1	-0.8%	0.3	4	-1	-2.1
O=C(CCS(=O)(=O)c1ccccc1)N1CCN(c2ccccc2)CC1	-3	-0.2%	-0.5	12	-22	-0.8
CN1C(=S)SC(C)(C)C1NO (stereo not drawn)	13	u	0.5	0	-8	-2.5
Cc1ccccc1OCc1nc2ccccc2c(=O)n1/N=C/c1cccc([N+](=O)[O-])c1	1	9.3%	-0.7	5	-7	-3.2
O=C(Cn1ncc(Cl)c(Cl)c1=O)Nc1ccc2c(c1)OCO2	5	3.5%	0.0	-9	-2	-0.6
O=S(=O)(c1ccc(=S)[nH]c1)N1CCOCC1	8	1.7%	3.3	3	-8	0.9
CNC(=S)N=Nc1c(O)[nH]c2ccc(C(C)C)cc12	-28	0.1%	4.5	u	-16	-6.4
CCN(CC)c1ccc(C=Nc2cccc(S(=O)(=O)N3CCOCC3)c2)c(O)c1	-5	2.2%	2.2	0	13	2.3
Cc1c(Cl)cccc1NC(=O)CCC(=O)NNC(=O)c1ccccc1	-2	-1.0%	2.7	7	1	0.5
CCN1CCN(CC(=O)Nc2cc(C)on2)CC1	1	3.2%	0.6	5	-6	0.3
CCOc1ccccc1NC(=O)CN1c2cccc3cccc(c23)S1(=O)=O	5	-0.3%	2.5	5	4	4.1
COC(=O)CNc1nc(-c2cccnc2)nc2ccccc12	-15	1.4%	1.3	-13	-19	1.4
COc1cc(=O)[nH]c(SCC(=O)Nc2nc3c(s2)CCCC3)n1	9	5.4%	-1.7	-2	-3	2.2

Part of the list above, reformatted.
| molecule | CtBP-E1A blk | PINK1 modulator | TRPML1 ag | Six1-Eya2 blk | D2 PAM | D2 agonist |
| --- | --- | --- | --- | --- | --- | --- |
| CCN(CC)c1ccc(C=Nc2cccc(S(=O)(=O)N3CCOCC3)c2)c(O)c1 | -5 | 2.2% | 2.2 | 0 | 13 | 2.3 |
| Cc1c(Cl)cccc1NC(=O)CCC(=O)NNC(=O)c1ccccc1 | -2 | -1.0% | 2.7 | 7 | 1 | 0.5 |

Other structures:
SMILES	CtBP-E1A blk	PINK1 modulator	TRPML1 ag	Six1-Eya2 blk	D2 PAM	D2 agonist
CCCCCCN1C[C@H](O)[C@@H](n2cc(COC(=O)c3ccccc3)nn2)C[C@@H]1c1ccc(Cl)cc1	3	u	1.6	5	8	-1.8
CCC(=O)N1CCN(c2ccc(NC(=O)c3cccs3)cc2)CC1	-2	1.2%	-0.9	-2	-8	0.8
CNC(=S)NCCCc1ccccc1	x	-0.5%	-0.4	6	-12	0.4
CC1C(c2ccccc2)N(C)C(c2ccccc2)CC1(O)c1ccc(F)cc1 (stereo not drawn)	2	u	0.3	-5	-13	-4.0
Cc1ccc(CCNC(=O)Cn2ncc3c([nH]c4ccccc43)c2=O)cc1	3	-0.5%&2.6%	0.2&2.1	4	-7	-1.6
CC1CCC2(CC1)NC(=O)N(NC(=O)c1ccc(OC(C)C)cc1)C2=O (stereo not drawn)	6	2.3%	-0.1	8	-16	-3.4
C/C(Cl)=C/Cn1c(SC(C)C)nc2c1c(=O)[nH]c(=O)n2C	-5	-0.7%	6.2	-4	-5	-4.8

Record cards, as listed above. Values in the order: CtBP-E1A blk	PINK1 modulator	TRPML1 ag	Six1-Eya2 blk	D2 PAM	D2 agonist
Record of CCCCCCN1C[C@H](O)[C@@H](n2cc(COC(=O)c3ccccc3)nn2)C[C@@H]1c1ccc(Cl)cc1 = 3	u	1.6	5	8	-1.8
Record of CNC(=S)NCCCc1ccccc1 = x	-0.5%	-0.4	6	-12	0.4
